Screening results as filed in PubChem.
Mtb bLac sens – beta-lactam sensitization of Mtb H37Rv | M. tuberculosis H37Rv growth with meropenem, percent inhibition; hits of this screen are not shown here | inhibition, % at 25 µM | hit rate 0.27% among 330,000 | AID 434955;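 active = about 74% or more and at least 40 points above the plate without the antibiotic, then above 30% in a dose series; inconclusive = first-round hits that could not be retested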;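 also: growth measured after seven days incubation then overnight dye step; 0% = bacteria only wells and 100% = bacteria with antibiotic; twin plates without the antibiotic show which effects depend on it; some results filed as inactive read as strong as hits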
Active calls of the source: *; u = inconclusive.

SMILES	Mtb bLac sens
Cc1cc(C(=O)CCC(=O)Nc2ccc(S(N)(=O)=O)cc2)c(C)s1	0
COc1ccc([C@H]2CC(=O)C=C(c3cccc4c3Oc3ccccc3S4)C2)cc1	8
C[C@H](CO)N1C[C@H](C)[C@@H](CN(C)Cc2ccc(-c3ccccc3)cc2)Oc2c(NC(=O)c3ccncc3)cccc2C1=O	7
COc1cccc(C(=O)OCC(=O)c2[nH]c(C)c(C(C)=O)c2C)c1	-8
O=C(C[C@H]1C/C=C\CCC(=O)O[C@@H](c2ccccc2)CNC1=O)NCCO	-2
Cc1ccc(S(=O)(=O)N(C)C)cc1NC(=O)C(C)OC(=O)c1ccc2ccccc2n1 (stereo not drawn)	0
CN1CCN(c2ccc(S(=O)(=O)N3CCCCC3)cc2N)CC1	0
CCC(C)Sc1ccc([C@@H]2[C@@H]3C(=O)N(CC)C(=O)[C@@H]3[C@]3(C(=O)OC)CCCCN23)cc1OC (stereo partly drawn)	-9
COc1ccc2c(c1)[C@H]1[C@H](CO2)[C@H](c2ccccc2)[C@]2(C)C(=O)Nc3cc(OC)c(OC)cc3C(=O)N12	0
C=CCC[C@@H](Cc1ccc(F)cc1)C(=O)OC[C@@H](C)NC(=O)[C@@H](CC=C)CC(=O)N[C@H](CO)Cc1ccccc1	0
CCc1cccc(CC)c1-n1c(SCC(=O)N2CCCc3ccccc32)nc(O)cc1=O	1
Cc1noc(C)c1COc1ccccc1C(=O)N(C)CC(=O)Nc1ccc(F)c(F)c1F	-3
Cc1ccccc1OCC(=O)Nc1nc(-c2ccncc2)cs1	64
CN(Cc1ccc(F)cc1)C(=O)C(c1ccccc1)c1ccccc1	-4
C[C@]12CCC(=O)C=C1CCC1C2CC[C@@]2(C)C1CCC21OCCO1 (stereo partly drawn)	5

Overlap with the part before: 4 entries, then new ones.
SMILES	Mtb bLac sens
Cc1noc(C)c1COc1ccccc1C(=O)N(C)CC(=O)Nc1ccc(F)c(F)c1F	-3
Cc1ccccc1OCC(=O)Nc1nc(-c2ccncc2)cs1	64
CN(Cc1ccc(F)cc1)C(=O)C(c1ccccc1)c1ccccc1	-4
C[C@]12CCC(=O)C=C1CCC1C2CC[C@@]2(C)C1CCC21OCCO1 (stereo partly drawn)	5
CC1(C)NC(=O)N(CCCC(=O)Nc2ccc(C(F)(F)F)cc2)C1=O	10
CCN(C(=O)Cn1ccc(C(F)(F)F)n1)c1c(N)n(Cc2ccccc2)c(=O)[nH]c1=O	-2
COc1ccc(Cl)cc1NC(=O)COC(=O)C1CCCCC1	-1
COc1ccccc1CN(CC(=O)NCc1ccc2c(c1)OCO2)C(=O)c1csnn1	-5
COc1cccc(NC(=O)CN(C)CC(=O)NC(C)c2ccccc2)c1 (stereo not drawn)	-6
COc1ccc(-c2c(-c3ccc(S(C)(=O)=O)cc3)sc3ccc(OC)cc23)cc1	-3
O=C(COc1ccc(F)cc1)NCC1(N2CCOCC2)CCCCC1	1
Cc1ccc(S(=O)(=O)N2CCC(C(=O)Nc3cccnc3)CC2)cc1	2
COC(=O)C1=C(c2ccc(OC)c(OC)c2)C[C@@H]2CC[C@H]1N2C(=O)NCCOc1ccccc1Cl	-5
CN(C)c1ccc(C#Cc2ccc3cc(CCO)oc(=O)c3c2)cc1	54
CCc1ccc(OCCOCCN2CCN(C)CC2)cc1	-1
COC(=O)C1=C(c2ccc(C(C)=O)cc2)C[C@@H]2CC[C@H]1N2C(=O)N1CCC(C)CC1	11
CC1CC1C(=O)OCC(=O)NCc1ccccc1 (stereo not drawn)	1
CC(C)C[C@H]1CN=C(N(C)C)N1CC1CCCC1	-3
CCCCn1c(N)c(N(CC(C)C)C(=O)CSc2ccc3c(c2)OCCO3)c(=O)[nH]c1=O	-2

(next part)
SMILES	Mtb bLac sens
O=[N+]([O-])c1ccc(OC(F)F)c(/C=N/n2cnnc2)c1	0
O=C(CSc1nncn1-c1ccccc1F)NC1CC1	-7
CCOC(=O)[C@H]1[C@H]2COc3ccccc3[C@@H]2N2C(=O)c3ccc(Cl)cc3NC(=O)[C@@]12C	-3
C[C@H](CO)N1C[C@H](C)[C@@H](CN(C)S(=O)(=O)c2ccc(F)cc2)Oc2c(NC(=O)Cc3ccccc3)cccc2C1=O	6
O=C(c1ccc(=O)[nH]n1)N1CCN(S(=O)(=O)c2ccc(C(F)(F)F)cc2)CC1	-7
Cc1ccc(S(=O)(=O)Nc2ccc(F)cc2)cc1C(=O)N1CCOCC1	-7
Nc1cc(S(=O)(=O)N2CCCCC2)ccc1N1CCCCC1	-7
Cc1ccc(N(CCC#N)C(=O)COC(=O)c2cc(C)oc2C)cc1	1
CN(C(=O)c1ccccc1C(=O)OCC(=O)Nc1cccc(Br)c1)c1ccccc1	-2
CSc1ccc(C2=CC(=O)C[C@H](c3ccc4c(c3)OCO4)C2)cc1	2
Cc1cc(F)cc(C)c1Cn1cnc2c(cnn2C(C)(C)C)c1=O	-4
CN(CC(=O)Nc1ccc(Cl)c(C(F)(F)F)c1)C(=O)c1cccc(N2C(=O)CCC2=O)c1	0
CCC(Oc1ccccc1)C(=O)OCC(=O)Nc1sccc1C(N)=O (stereo not drawn)	0
O=C1c2ccc(-c3ccc(Cl)c(C(F)(F)F)c3)cc2S(=O)(=O)c2cccc(C(=O)N3CCN(c4ccc(Cl)cn4)CC3)c21	11
COC(=O)c1ccc(CNC(=O)c2ccc(S(=O)(=O)N3CCCCCC3)cc2)cc1	-4

An excerpt of these results, with each value named.
O=C(C[C@H]1C/C=C\CCC(=O)O[C@@H](c2ccccc2)CNC1=O)NCCO
  Mtb bLac sens = -2

CCN(C(=O)Cn1ccc(C(F)(F)F)n1)c1c(N)n(Cc2ccccc2)c(=O)[nH]c1=O
  Mtb bLac sens = -2

CCc1ccc(OCCOCCN2CCN(C)CC2)cc1
  Mtb bLac sens = -1

Cc1ccccc1OCC(=O)Nc1nc(-c2ccncc2)cs1
  Mtb bLac sens = 64

Next part:
SMILES	Mtb bLac sens
COCCN(C(=O)CSc1nc2ccccc2o1)c1c(N)n(Cc2ccccc2)c(=O)[nH]c1=O	-2
COc1cc(NC(=O)C2CC(c3cccc(Br)c3)=NO2)cc(OC)c1OC (stereo not drawn)	-3
COc1ccc(S(=O)(=O)NC(C)C(=O)NCc2ccc3c(c2)OCO3)cc1OC (stereo not drawn)	-25
CCOc1ccccc1NC(=O)CN1c2cccc3cccc(c23)S1(=O)=O	3
C#CCOCCOCCOCCNc1nc(N2CCN(C(=O)C([C@@H](C)O)n3cc([C@@H](N)CCCCN)nn3)CC2)nc(N2CCN(C(=O)[C@H](CC(N)=O)n3cc([C@@H](N)C(C)C)nn3)CC2)n1 (stereo partly drawn)	3
CCc1ccc(-c2nn(-c3ccccc3C)cc2C(=O)N2CCN(C3CCS(=O)(=O)C3)CC2)cc1 (stereo not drawn)	-1
CC(=O)c1ccc(OCC(=O)N2CCCC2c2ccc3c(c2)OCCCO3)cc1 (stereo not drawn)	-4
CN(C(=O)c1cccc(NC(=O)Cc2ccc([N+](=O)[O-])cc2)c1)C1CCC1	-1
COc1ccc(Sc2ccc(-c3nc4cnccn4c3NC3CCCCC3)cc2OC)cc1	-9
O=C(CN1CCN(Cc2ccccc2)CC1)Nc1nnc(C(F)(F)F)s1	-3
Cc1cc(C)n2nc(SCC(=O)N3CCCCC3C)nc2n1 (stereo not drawn)	0
O=C(O)CCc1ccc(S(=O)(=O)Nc2ccccc2N2CCCCC2)cc1	0
Cc1ccc(-c2nnc(SCC(=O)Nc3cccnc3Cl)n2N)cc1	6
COc1cc(C(=O)OC(C)C(=O)NC(=O)NC2CCCCC2)ccc1OC(F)F (stereo not drawn)	7
O=C(CN1C(=O)NC(c2ccc(F)cc2)C1=O)Nc1ccc2c(c1)OCCO2 (stereo not drawn)	-6

(more compounds)
SMILES	Mtb bLac sens
Cc1ccc(C(=O)C2=C(O)C(=O)N(Cc3ccco3)C2c2cccc(Cl)c2)o1 (stereo not drawn)	-1
Cc1nn(CC(=O)NCCC2=CCCCC2)c(C)c1S(=O)(=O)N(C)C	1
Cc1ccc(S(=O)(=O)N2CCN(Cc3nnc(-c4c(-c5ccccc5)noc4C)o3)CC2)cc1	-2
CCc1nn2c(=O)cc(COC(=O)c3cc(Cl)c(OC)c(OC)c3)nc2s1	-3
CCOC(=O)N1CCN(C(=O)C2CCN(C(=O)Nc3ccccc3)CC2)CC1	0
CCCN(CC(=O)Nc1ccccc1C)C(=O)c1ccc(C2SCCS2)cc1	2
CC(C(=O)Nc1ccc(S(=O)(=O)N2CCCC2)cc1)N(C)CC(=O)Nc1cccc(F)c1 (stereo not drawn)	0
COc1cc(OC)cc(-c2sc3ccc(OC)cc3c2C#CCCO)c1	89
CCc1noc(C)c1C(=O)N1CCN(S(=O)(=O)c2ccc(Cl)cc2)CC1	-6
COc1cccc(N2CCN(C(=O)CC(NC(=O)c3ccccc3)c3ccccc3)CC2)c1 (stereo not drawn)	1
CN(C(=O)c1ccc(NC(=O)Cc2ccc(NC(=O)C3CCCN(C(=O)c4ccccc4)C3)cc2)cc1)C1CC1 (stereo not drawn)	6
CCOC(=O)C1=C(COC(=O)/C=C/c2ccc(C)o2)NC(=O)NC1C (stereo not drawn)	-7
O=C(CSc1nc2ncc(Cl)cc2[nH]1)N1CCOCC1	1
O=C(OCC(=O)N1CCOCC1)c1cccc(S(=O)(=O)Nc2ccc(F)cc2)c1	-7
CNC(=O)c1ccc(NC(=O)c2ccc3c(=O)n4c(nc3c2)CCC4)cc1	-3

(cont.)
SMILES	Mtb bLac sens
O=C(COC(=O)/C=C/c1ccc(OC(F)F)cc1)Nc1cccc(S(=O)(=O)N2CCOCC2)c1	-1
Cc1ccc(NC(=O)COC(=O)C2(CC(=O)NC(C)C)CCCC2)cc1C	-1
Cc1ccc(C)c(NC(=O)COC(=O)CSc2ccccc2)c1	-3
COC(=O)[C@@]12CCCN1[C@H](c1ccc(-c3ccc(OC)cc3)c(OC)c1)[C@@H]1C(=O)N(C)C(=O)[C@@H]12	-4
Cc1noc(C)c1COc1ccccc1C(=O)NNC(=O)c1ccccc1F	-2
CC(C)CCC1(C)NC(=O)N(CC(=O)NCC(=O)Nc2ccc(F)c(F)c2F)C1=O (stereo not drawn)	-1
Cc1cc(S(=O)(=O)NC(C)c2nnc3ccccn23)ccc1Br (stereo not drawn)	-4
CC1CCC(NC(=O)CSc2nnnn2C)CC1 (stereo not drawn)	8
O=C(COc1ccc(F)c(Cl)c1)Nc1ccc(N2CCOCC2)cc1	-2
CCCCC(=O)OCc1c(-c2cccc(OC)c2)ncc2ccccc12	-1
COc1ccc(CN2CCNC(=O)C2CC(=O)N(C)Cc2ccon2)c(F)c1 (stereo not drawn)	u
O=C(COC(=O)c1ccco1)Nc1ccc2[nH]c(=O)[nH]c2c1	-3
COc1ccc(Cl)cc1NC(=O)CN1C(=O)NC(Cc2c[nH]c3ccccc23)C1=O (stereo not drawn)	2
COc1ccc(NC(=O)c2cccc(S(=O)(=O)N3CCCC3)c2)cc1OC	-7
COc1ccc(-c2c(C#Cc3ccc(N(C)C)cc3)c3ccccc3n2C)cc1	49

Next part
SMILES	Mtb bLac sens
CC(=O)c1ccccc1NC(=O)COC(=O)c1cc2ccccc2[nH]1	-1
Nc1cc(=O)[nH]c(SCC(=O)Nc2ccc(S(=O)(=O)N3CCCC3)cc2)n1	-4
CCN(C(=O)COC(=O)c1ccc([N+](=O)[O-])o1)C1CCCCC1	98
C/C(=N\NC(=O)c1c([N+](=O)[O-])c(C)nn1C)c1ccc(NC(=O)C2CCCC2)cc1	-1
COc1cccc(/C=C/C(=O)NNC(=O)c2ccccc2)c1OC	2
C/C(N)=C(/C#N)C(=O)COC(=O)C1CCN(S(=O)(=O)c2cccs2)CC1	2
COc1ccc(C(CNC(=O)c2cccc(S(=O)(=O)N3CCCCC3)c2)N2CCCC2)cc1 (stereo not drawn)	-8
CN(C(=O)CSc1ncnc2sccc12)C1CCCCC1	-1
Cc1ccccc1N	-4
CC(C)c1cccc(-c2ccc3c(c2)S(=O)(=O)c2cccc(C(=O)NC4CCCC4)c2C3=O)c1	4
NC(=O)c1cc(Cl)ccc1OCC(=O)Nc1ccc2c(c1)OCO2	-14
COc1ccc(OCCNC(=O)c2cc(C3CC3)nc3c2cnn3C(C)C)cc1	-6
CC(C)[C@H](NS(=O)(=O)c1cccc(C(F)(F)F)c1)C(=O)OCC(=O)NC(=O)NCc1ccco1	2
C[C@H](CO)N1C[C@H](C)[C@@H](CN(C)C(=O)Nc2ccccc2)Oc2ccc(NC(=O)NC3CCCCC3)cc2C1=O	5
CCN(C(=O)COC(=O)CNC(=O)c1cccc(C)c1)c1c(N)n(Cc2ccccc2)c(=O)[nH]c1=O	-12

(listing goes on)
SMILES	Mtb bLac sens
COc1cc2c(cc1OC)C(=O)N1[C@H]3c4cc(Cl)ccc4OC[C@@H]3[C@H](c3ccccc3)[C@]1(C)C(=O)N2	95
COc1ccc(NC(=O)N(C)C[C@H]2Oc3ccc(NC(=O)C4CC4)cc3CC(=O)N([C@@H](C)CO)C[C@@H]2C)cc1	-2
CC(C)n1ncc2c(C(=O)N3CCN(c4ccccc4)CC3)cc(-c3ccccc3)nc21	72
COc1ccc(S(=O)(=O)Nc2cccc3c2O[C@H](CN(C)S(=O)(=O)c2cn(C)cn2)[C@@H](C)CN([C@H](C)CO)C3=O)cc1	0
Cc1ccc(S(=O)(=O)Nc2cc(C)on2)cc1	-10
Cn1nc(C(=O)Nc2ccccc2N2CCOCC2)ccc1=O	-2

This is a subset; the hit share may differ from the screen's.
